High-throughput results from PubChem BioAssay.
D2 ag: activates the human D2 dopamine receptor; AID 624465; DiscoveRx PathHunter D2 beta-arrestin, luminescence, 90 min; 100% = 57 uM dopamine signal; 360,000 tested, 0.084% active; activation, % (concentration not given with the values); P14416; in the data active = activation above about 40%; inconclusive = about 15% to 40%; inactive = below about 15%; also: compound concentration not given in the record; the text of the record calls up to 30% inactive
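DiscoveRx PathHunter D2 beta-arrestin cells (2,100/well) attached overnight, then compound-stimulated 90 min at 37 C in HBSS/10 mM HEPES/0.1% Tween-20 buffer; beta-galactosidase complementation read by luminescence after 1 h at ambient temperature. Dopamine 57 uM final (EC100) as control.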
Six1-Eya2 blk: inhibitors of human Six1/Eya2 interaction; AID 651725; activity change, % (no concentration beside the values); 360,000 tested, 0.56% active; Q15475+O00167; AlphaScreen GST-Six1/His-Eya2 binding, biochemical; hits give low values; control for the full effect not named in the record; in the data active = activity change below about -65%; inconclusive = about -30% to -65%; inactive = above about -30%; also: % is scaled to controls: 0 for no effect and ±100 for the full control effect; compound concentration not given in the record
Target sequence (O00167 whole entry, looked up): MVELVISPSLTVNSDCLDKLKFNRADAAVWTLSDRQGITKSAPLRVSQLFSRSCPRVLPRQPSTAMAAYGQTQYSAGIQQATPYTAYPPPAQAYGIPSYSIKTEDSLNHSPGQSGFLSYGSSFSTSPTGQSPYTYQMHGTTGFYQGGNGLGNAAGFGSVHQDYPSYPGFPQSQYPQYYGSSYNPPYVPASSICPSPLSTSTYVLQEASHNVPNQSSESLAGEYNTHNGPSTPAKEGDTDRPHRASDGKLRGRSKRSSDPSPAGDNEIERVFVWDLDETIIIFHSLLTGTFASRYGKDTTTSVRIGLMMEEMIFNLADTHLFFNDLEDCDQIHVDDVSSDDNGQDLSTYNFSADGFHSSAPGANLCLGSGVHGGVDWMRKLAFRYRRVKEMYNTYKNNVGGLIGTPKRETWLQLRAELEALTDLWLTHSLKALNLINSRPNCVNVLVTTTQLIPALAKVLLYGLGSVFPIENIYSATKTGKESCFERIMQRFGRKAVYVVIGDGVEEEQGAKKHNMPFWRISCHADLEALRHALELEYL
Target sequence (Q15475 whole entry, looked up): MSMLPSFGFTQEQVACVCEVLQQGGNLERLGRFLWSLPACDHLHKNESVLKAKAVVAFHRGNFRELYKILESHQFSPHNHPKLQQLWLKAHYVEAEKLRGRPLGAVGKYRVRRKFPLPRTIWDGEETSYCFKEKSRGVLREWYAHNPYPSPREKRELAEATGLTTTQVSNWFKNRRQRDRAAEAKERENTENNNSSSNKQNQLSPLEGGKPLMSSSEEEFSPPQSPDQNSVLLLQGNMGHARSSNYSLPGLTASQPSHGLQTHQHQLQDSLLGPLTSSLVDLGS
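Six1/Eya2 binding was read as AlphaScreen signal after compounds were pinned into GST-Six1 plus His-tagged Eya2 (5X stock 250/500 nM) in pH 8.0 Tris/NaCl/TCEP buffer, beads added, then incubated 1 h, 37 C, dark.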
gsp ag: agonists of gsp mutant (McCune-Albright syndrome) | 340,000 tested, 0.13% active | gsp mutant cells, cAMP HTRF, 30 min; control for the full effect not named in the record | Potency, µM (doses to about 76.9 µM), for inactives: top-dose activation (cAMP increase), usual class: activators; active = well fitted activation curve with a large enough effect; inconclusive = small, poorly fitted or top-dose-only effect, or another doubt; inactive = no such curve, though single readings can be large or run the other way; cell line not stated here;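 also: phosphodiesterase inhibitor Ro 20-1724 added with compounds to block cAMP breakdown; potency is read from the fitted curve at half-maximal effect; nearly all actives have a fitted effect of over 60% in size; about a fifth of the inactives were tested at one dose only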
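Cells in DMEM/10% FBS with G418 were pretreated with compounds in DMSO plus […] (300 uM stock) for 30 min at 37C. cAMP was measured by HTRF (cAMP-d2 plus anti-cAMP antibody-K) after 30 min at room temperature.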
D2 PAM: human D2 receptor positive allosteric modulation; DiscoveRx D2 beta-arrestin cells, luminescence, 90 min; 100% = 57 uM dopamine signal; potentiation, % (no concentration beside the values); 360,000 tested, 0.23% active; P14416; active = potentiation of 50% or more; inconclusive = 30% to 50%; inactive = 30% or less;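 also: compound concentration not given in the record; tested on top of an EC20 dose of dopamine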
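PathHunter beta-arrestin assay in DiscoveRx D2 cells. Compounds were added with an EC20 of dopamine (50 nM final) for 90 min at 37 deg C. Luminescence was read 1 h after detection reagent, with 57 uM dopamine as the EC100 control.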
gsp antagonist: gsp mutant antagonism; gsp-mutant cells, cAMP HTRF, 30 min; control for the full effect not named in the record; Potency, µM (top dose mostly 76.9 µM), without a hit: at the top dose activity change, negative = inhibition, most hits filed as inhibitors; 340,000 tested, 0.4% active; AID 624288; active = falling curve of any shape with a large fitted effect; inconclusive = falling curve, mostly with a smaller effect; inactive = flat or rising curve; cell line not stated here;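 also: intracellular cAMP measured with PDE inhibitor Ro 20-1724 present during compound exposure; potency is read from the fitted curve at half-maximal effect; % is scaled to controls: 0 for no effect and ±100 for the full control effect; nearly all actives have a fitted effect of over 65% in size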
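Measurement of cellular cAMP by homogeneous time-resolved fluorescence following a 30 min compound exposure at 37C. The PDE inhibitor […] was present throughout; the assay buffer was DPBS with 0.05% BSA and 0.005% Tween 20.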
CtBP-E1A inh: inhibitors of CtBP/E1A interaction; AlphaScreen GST-E1A/His-CtBP binding, 1536-well; hits give low values; control for the full effect not named in the record; activity change, % (concentration not given with the values); 340,000 tested, 0.49% active; in the data active means activity change below about -65%; inconclusive means about -30% to -65%; inactive means above about -30%; also: % is scaled to controls: 0 for no effect and ±100 for the full control effect
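GST-E1A and His-tagged CtBP (125 nM each as 5X stock) were preincubated with pin-transferred compound for 2 h at 37 °C in the dark, then glutathione donor and nickel acceptor beads were added for 1 h before AlphaScreen reading.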
An asterisk follows results filed as active; ? = inconclusive; . = not tested or not shown; & = joins results of further samples; [ ] = dose if it differs, or a comment. Hits appear at their usual frequency (roughly 1.4% active in at least one column).

item | D2 ag | Six1-Eya2 blk | gsp ag | D2 PAM | gsp antagonist | CtBP-E1A inh | SMILES
1 | -2.3 | 0 | -49%[inhibitor] | 5 | 12% | 26 | N/C(=N\OC(=O)COc1ccc(Br)cc1)c1cccnc1
2 | -1.1 | -1 | -48%[inhibitor] | -16 | 11% | 0 | CCC1CCCCN1CCCCOc1cccc(Cl)c1 (stereo not drawn)
3 | -4.3 | 9 | . | -3 | . | 5 | O=C(CC[C@H]1O[C@@H](n2cnc3c(NC(=O)c4ccccc4)ncnc32)[C@H](O)[C@@H]1O)NCc1cccs1
4 | 1.2 | 2 | ? | -10 | 0% | 11 | Cc1ccc(OCCNC(=O)CNC(=O)c2ccccc2Cl)cc1
5 | 5.4 | 13 | 4% | -20 | 7% | -6 | Cc1cc2c3nonc3ccc2n1C
6 | 5.2 | -1 | 10% | 3 | 7% | 2 | O=C(NCCN1C(=O)C2C3C=CC(C3)C2C1=O)Nc1ccccc1O (stereo not drawn)
7 | 2.7 | 5 | -5%[15.4 µM] | 5 | -6% | -23 | CC(=O)Nc1ccc(-c2csc(NC(=O)Cc3ccccc3F)n2)cc1
8 | -0.9 | 13 | 3% | -7 | -6% | 3 | CCOC(=O)C(CSCC(=O)c1ccc(Cl)cc1Cl)NC(=O)OC(C)(C)C (stereo not drawn)
9 | -0.6 | -4 | 4% | -14 | 8% | 1 | O=C(NC(=O)N1CCN(c2ccccc2)CC1)c1ccc(Cl)cc1
10 | -6.7 | -17 | 23%[15.4 µM] | -6 | -10% | 13 | Cc1ccccc1-n1c([C@@H]2C[C@H]2c2ccccc2)n[nH]c1=S
11 | -3.2 | -20 | -35%[inhibitor] | -49 | 9% | 17 | COc1cc2c(cc1Cl)/C(=C\CCN(C)C)c1ccccc1S2
12 | -1.6 | -10 | 1% | -3 | 8% | -1 | NC(C(=O)O)C1ON=C(Cl)C1O (stereo not drawn)
13 | -1.0 | 4 | -2% | -8 | 11% | 0 | CN1CCCN(S(=O)(=O)c2ccc(O)c(C(=O)O)c2)CC1
14 | -5.6 | 8 | 17% | -3 | -6% | . | Cc1c(NC(=O)c2ccc(NS(=O)(=O)c3ccc(F)c(F)c3)cc2)c(=O)n(-c2ccccc2)n1C
15 | -0.3 | 8 | 2% | -5 | -14% | 1 | COc1cc(-c2nnc(SCC(=O)OC3CCCCC3)o2)cc(OC)c1OC
16 | 8.3 | 16 | . | -3 | . | -7 | CCCCNC(=O)C1(C)CCCCN1C(=O)c1ccc2ccccc2n1 (stereo not drawn)
17 | -3.3 | 22 | -10%[15.4 µM] | -23 | -15% | 31 | c1ccc(NC(c2ccccc2)c2ccncc2)cc1 (stereo not drawn)
18 | -3.4 | -12 | . | -6 | . | -5 | Cc1nc2ccc(C(=O)N(C)Cc3ccco3)cn2c1N(C)CC1CCCCC1
19 | -2.6 | -3 | -35%[inhibitor] | -5 | 6% | 4 | Cc1ccc(C(C(=O)NC2CCCC2)N2CCc3ccccc32)cc1 (stereo not drawn)
20 | -3.1 | -9 | 9% | 0 | -3% | -18 | CCn1c(O)c(C2=NCCCC2)c2ccccc21
21 | -3.2 | -4 | -11% | -13 | -27% | -3 | CCCc1[nH]n(-c2nc3ccccc3s2)c(=O)c1C=NCC(C)C
22 | -3.4 | 3 | -26% | -7 | -10% | 6 | CCC1(CC)Nc2ccccc2C(=O)N1c1ccc(OC)cc1
23 | 3.3 | -1 | 0% | -4 | -4% | -2 | NS(=O)(=O)c1ccc2nc(NC(=O)Nc3ccc(F)cc3)sc2c1
24 | -6.3 | -9 | 16% | -8 | . | 1 | Cc1ccc(S(=O)(=O)NN=C2CCCc3ccccc32)cc1
25 | 1.7 | -6 | ? | 0 | 6% | -7 | CCOc1ccc2oc(C(=O)NCc3ccccc3CN3CCCC3)c(C)c2c1
26 | 1.4 | 3 | -30% | 3 | 8% | . | COc1ccc(N(CC(=O)N2CCN(Cc3ccccc3)CC2)S(C)(=O)=O)cc1
27 | -4.3 | 6 | 7% | 21 | -23% | 8 | COc1ccc2cc(C(=O)OC(C)C)sc(=O)c2c1OC
28 | ? | -29 | 6% | ? | 11% | 5 | CN=c1sc2c(n1C)C(=O)c1ccccc1C2=O
29 | -3.5 | 11 | -10% | -14 | 7% | -19 | CCCNC1(C(N)=O)CCN(Cc2ccccc2)CC1
30 | -2.5&-5.4 | 0&-3 | . | -4&4 | 2%&-4% | 1&7 | C[C@]12C=CC(=O)C=C1CC[C@@H]1[C@@H]2C(=O)C[C@@]2(C)[C@H]1CC[C@]2(O)C(=O)CO

(next part)
item | D2 ag | Six1-Eya2 blk | gsp ag | D2 PAM | gsp antagonist | CtBP-E1A inh | SMILES
31 | 0.2 | -2 | -8% | 3 | -5% | 0 | CCOC(=O)C1=C(C)NC2=C(C(=O)CCC2)C1c1cc(OC)ccc1OC (stereo not drawn)
32 | -3.7 | 8 | -11% | 4 | -6% | . | CC(=O)COc1ccc2c(-c3cccc([N+](=O)[O-])c3)cc(=O)oc2c1
33 | 1.3 | 6 | -26% | 11 | 10% | -2 | Cc1cccc(C(=O)NNC(=O)c2ccc(-c3ccccc3)cc2)c1
34 | -2.8 | 3 | 12% | -14 | 9% | . | CC(C)(C)NC(=S)NCC1CC1
35 | -2.6 | 3 | 6% | -5 | 15% | 0 | Cc1cccc(C(=O)OCC(=O)N2CCCCCC2)c1C
36 | -0.7 | 5 | -30% | 2 | 4% | -1 | CCn1nnnc1SCC(=O)NCc1ccc2c(c1)OCO2

Rewritten field by field: part of the list above
35. Cc1cccc(C(=O)OCC(=O)N2CCCCCC2)c1C
  D2 ag: -2.6
  Six1-Eya2 blk: 3
  gsp ag: 6%
  D2 PAM: -5
  gsp antagonist: 15%
  CtBP-E1A inh: 0

36. CCn1nnnc1SCC(=O)NCc1ccc2c(c1)OCO2
  D2 ag: -0.7
  Six1-Eya2 blk: 5
  gsp ag: -30%
  D2 PAM: 2
  gsp antagonist: 4%
  CtBP-E1A inh: -1

In the list so far, ten contain a halogen:
item | D2 ag | Six1-Eya2 blk | gsp ag | D2 PAM | gsp antagonist | CtBP-E1A inh | SMILES
1 | -2.3 | 0 | -49%[inhibitor] | 5 | 12% | 26 | N/C(=N\OC(=O)COc1ccc(Br)cc1)c1cccnc1
2 | -1.1 | -1 | -48%[inhibitor] | -16 | 11% | 0 | CCC1CCCCN1CCCCOc1cccc(Cl)c1 (stereo not drawn)
4 | 1.2 | 2 | ? | -10 | 0% | 11 | Cc1ccc(OCCNC(=O)CNC(=O)c2ccccc2Cl)cc1
7 | 2.7 | 5 | -5%[15.4 µM] | 5 | -6% | -23 | CC(=O)Nc1ccc(-c2csc(NC(=O)Cc3ccccc3F)n2)cc1
8 | -0.9 | 13 | 3% | -7 | -6% | 3 | CCOC(=O)C(CSCC(=O)c1ccc(Cl)cc1Cl)NC(=O)OC(C)(C)C (stereo not drawn)
9 | -0.6 | -4 | 4% | -14 | 8% | 1 | O=C(NC(=O)N1CCN(c2ccccc2)CC1)c1ccc(Cl)cc1
11 | -3.2 | -20 | -35%[inhibitor] | -49 | 9% | 17 | COc1cc2c(cc1Cl)/C(=C\CCN(C)C)c1ccccc1S2
12 | -1.6 | -10 | 1% | -3 | 8% | -1 | NC(C(=O)O)C1ON=C(Cl)C1O (stereo not drawn)
14 | -5.6 | 8 | 17% | -3 | -6% | . | Cc1c(NC(=O)c2ccc(NS(=O)(=O)c3ccc(F)c(F)c3)cc2)c(=O)n(-c2ccccc2)n1C
23 | 3.3 | -1 | 0% | -4 | -4% | -2 | NS(=O)(=O)c1ccc2nc(NC(=O)Nc3ccc(F)cc3)sc2c1
